# PINK1 expr mod: PINK1 expression modulation. Potency, µM (series often up to 76.6 µM), for the others: top-dose activation (PINK1 increase), hits mostly activators. PINK1 immunofluorescence, high-content cytometry, 24 h. 410,000 tested, 0.2% active; active = well fitted activation curve with a large enough effect; inconclusive = small, poorly fitted or top-dose-only effect; inactive = flat fitted curve, though single readings scatter; cell line not stated here;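 also: potency is read from the fitted curve at half-maximal effect; % of control where 0% means no effect; nearly all actives have a fitted effect of over 65% in size; a mitochondrial uncoupler was the plate control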
#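 Compound titrations (5 concentrations, 24 h) on a stable cell line; DMSO and CCCP controls. Endpoint: fixed-cell PINK1 immunofluorescence with mitochondrial, cell and nuclear markers, scanned by microplate cytometer.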
# D2 agonist: agonists of human D2 dopamine receptor (beta-arrestin); 360,000 tested, 0.084% active; activation, % (test concentration not listed); DiscoveRx PathHunter D2 beta-arrestin, luminescence, 90 min; 100% = 57 uM dopamine signal; P14416; in the data active = activation above about 40%; inconclusive = about 15% to 40%; inactive = below about 15%; also: compound concentration not given in the record; the text of the record calls up to 30% inactive
#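 Agonist mode: compounds alone added to overnight-plated D2 PathHunter cells for 90 min at 37 C, with 57 uM final dopamine (EC100) defining full response. Beta-arrestin recruitment detected by chemiluminescent reagent, read after 1 h at ambient temperature.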
# Six1-Eya2 inh: Six1/Eya2 interaction inhibition. activity change, % (test concentration not listed). AlphaScreen GST-Six1/His-Eya2 binding, biochemical; hits give low values; control for the full effect not named in the record. AID 651725. 360,000 tested, 0.56% active; in the data active = activity change below about -65%; inconclusive = about -30% to -65%; inactive = above about -30%; also: % is scaled to controls: 0 for no effect and ±100 for the full control effect; compound concentration not given in the record
# Target sequence (O00167 whole entry, looked up): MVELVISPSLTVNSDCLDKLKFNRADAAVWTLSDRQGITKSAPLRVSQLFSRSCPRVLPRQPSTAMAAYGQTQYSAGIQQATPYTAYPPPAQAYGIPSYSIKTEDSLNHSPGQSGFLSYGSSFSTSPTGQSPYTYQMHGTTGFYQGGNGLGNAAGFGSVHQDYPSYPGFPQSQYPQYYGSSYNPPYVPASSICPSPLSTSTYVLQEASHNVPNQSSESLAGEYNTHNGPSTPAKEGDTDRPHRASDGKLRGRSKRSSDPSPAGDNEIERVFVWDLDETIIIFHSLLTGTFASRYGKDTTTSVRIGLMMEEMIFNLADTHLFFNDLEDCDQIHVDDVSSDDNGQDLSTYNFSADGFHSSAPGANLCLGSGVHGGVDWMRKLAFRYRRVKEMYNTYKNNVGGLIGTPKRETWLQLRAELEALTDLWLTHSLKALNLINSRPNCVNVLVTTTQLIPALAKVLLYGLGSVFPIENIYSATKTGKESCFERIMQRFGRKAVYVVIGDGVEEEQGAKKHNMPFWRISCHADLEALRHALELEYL
# Target sequence (Q15475 whole entry, looked up): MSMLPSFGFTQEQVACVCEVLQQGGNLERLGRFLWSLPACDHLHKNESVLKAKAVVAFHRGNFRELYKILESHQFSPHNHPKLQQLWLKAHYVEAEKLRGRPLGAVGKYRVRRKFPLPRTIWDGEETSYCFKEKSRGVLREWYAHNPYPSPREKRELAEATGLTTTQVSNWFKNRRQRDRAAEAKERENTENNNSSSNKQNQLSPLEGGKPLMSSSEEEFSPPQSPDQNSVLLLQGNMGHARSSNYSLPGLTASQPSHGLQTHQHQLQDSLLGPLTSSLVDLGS
#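 Homogeneous AlphaScreen proximity assay pairing GST-Six1 with His-tagged Eya2 (added as 5X mix: 250 nM and 500 nM) in 50 mM Tris pH 8.0, 300 mM NaCl, 1 mM TCEP. Glutathione donor and nickel acceptor beads; 1 h, 37 °C, dark.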
# D2 PAM: human D2 receptor positive allosteric modulation; P14416; DiscoveRx D2 beta-arrestin cells, luminescence, 90 min; 100% = 57 uM dopamine signal; potentiation, % (concentration not given with the values); 360,000 tested, 0.23% active; AID 624464; active = potentiation of 50% or more; inconclusive = 30% to 50%; inactive = 30% or less;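 also: compound concentration not given in the record; tested on top of an EC20 dose of dopamine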
#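 PathHunter D2 cells, attached overnight at 37 deg C, received compound in DMSO plus dopamine at EC20 (50 nM final) for 90 min at 37 deg C. Beta-arrestin recruitment was read as luminescence after 1 h with detection reagent at ambient temperature.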
# TRPML1 ag: activates the human TRPML1 channel. Q9GZU1. TRPML1-expressing cells, Ca2+ dye fluorescence, FDSS; host cell line not named in the record; reference of the full effect not given here. activation, % (concentration not given with the values). 410,000 tested, 0.12% active. AID 624414; in the data active = activation above about 50%; inconclusive = about 30% to 50%; inactive = below about 30%; also: 0% is about no effect; the text of the record puts the active cut at 80%
#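 Agonist activity was taken from a 110 s kinetic Ca2+ dye read on the FDSS after pinning compounds onto TRPML1-DL cells. The cells were seeded at 1,500/well with Tet inducer, incubated about 16 h, then dye-loaded at room temperature.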
# TRPML1 blocker: blocks the human TRPML1 channel | 390,000 tested, 0.02% active | activity change, negative = inhibition, % (concentration not given with the values) | TRPML1-inducible cells, Ca2+ dye fluorescence, FDSS; hits give low values; inhibition of EC80 agonist-evoked calcium signal | AID 624415; in the data active means activity change below about -50%; inconclusive means about -30% to -50%; inactive means above about -30%;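 also: stimulus is agonist 54-4 at its EC80 concentration; % is scaled to controls: 0 for no effect and ±100 for the full control effect; compound concentration not given in the record; the text of the record puts the active cut at -80%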
#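 TRPML1-DL cells, Tet-induced overnight (~16 h, 37 °C) at 1,500 cells/well, were loaded with Ca8 no-wash dye plus quencher for 45-90 min at room temperature. Compounds were pinned during FDSS kinetic reading; agonist 54-4 at EC80 (4 uM final) then added.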
# Starred values were filed as active, the others as inactive; ? = inconclusive; nt = not tested or not shown; & = joins results of further samples; [ ] = another dose, or the depositor's remark.
smiles,PINK1 expr mod,D2 agonist,Six1-Eya2 inh,D2 PAM,TRPML1 ag,TRPML1 blocker
CCc1ccc(NCc2cc3ccc(OC)cc3n(CC(=O)Nc3ccccc3C)c2=O)cc1,2.8%,nt,nt,nt,3.1,30
COc1ccc(NC(=O)c2ccc3c(c2)C(=O)N(Cc2cccnc2)C3=O)c(OC)c1,-0.1%,2.0,4,10,0.5,24
COc1ccc(CC(N)c2csc(NC(=O)Nc3ccccc3C(C)(C)C)n2)cc1 (stereo unspecified),-0.9%,5.6,-11,-7,0.0,nt
CS(=O)(=O)N1CCC(C(=O)NCc2ccco2)CC1,nt,-1.5,-1,-3,-0.5,4
Cc1cc(OC(=O)c2cc(Cl)nc3ccccc23)ccc1Cl,-0.1%,-5.0,1,-9,0.8,-1
COc1cc(OC)c(OC)cc1/C=N/NC(=S)NCCN1CCOCC1,2.3%,-4.1,0,-27,-0.1,11
CCCCC(=O)N(C)c1c(CC)nc2c(OCC(=O)N3CCOCC3)cccn12,3.2%,-2.2,18,-1,-0.2,nt
CC(=O)N1c2ccc(S(=O)(=O)N3CCCC3)cc2CC1C(=O)NCc1ccc(N(C)C)cc1 (stereo unspecified),0.0%,5.7,-1,-10,0.4,23
COc1ccccc1NC(=O)c1ccc(CN2CCOCC2)cc1,-0.9%,-1.9,-6,-10,-1.5,-2
CN1CCN(C(=O)c2ccc3c(c2)N(Cc2ccc(F)cc2)C(=O)c2ccccc2S3=O)CC1 (stereo unspecified),1.1%&1.8%,6.3,8,-11,-0.9&-0.3,0&9
CCOC(=O)COc1ccccc1C(=O)c1cnn(-c2ccccc2)c1,0.1%,-1.9,12,-13,2.5,6
COCc1cc(C)nc(SCC(=O)Nc2nc(C)cs2)c1C#N,4.6%,8.9,-10,2,11,8
COc1ccccc1CNC(=O)Cn1cccc1C(=O)c1ccccc1C,-0.3%,-5.8,-3,-8,-1.0,-4
COC(=O)c1cc(NC(=O)COC(=O)CN2C(=O)C3CC=CCC3C2=O)cc(C(=O)OC)c1 (stereo unspecified),0.1%,-3.3,-16,1,-0.1,-11
COC(=O)c1sc(-c2ccccc2)cc1NC(=O)c1cccc(Cl)c1,-0.5%,nt,nt,nt,-0.3,-11
O=C(COC(=O)c1cc[n+]([O-])cc1)Nc1ccc(F)c([N+](=O)[O-])c1,2.8%,0.8,1,-10,0.4,-9
COc1cccc(-c2cc(C(=O)N3CCN(C(c4ccccc4)c4ccccc4)CC3)no2)c1,5.3%[38.3 µM],-1.6,-11,-8,1.9,-7
O=C(N/N=C\c1c[nH]c2ccccc12)c1ccc(O)cc1,-0.7%,-1.8,-22,-8,-0.1,9
N=c1c(C(=O)NC2CCCC2)cc2c(=O)n3ccccc3nc2n1CC1CCCO1 (stereo unspecified),1.0%,2.4,8,-3,0.4,-4
COC(=O)C1=C(C(=O)c2ccc(C)cc2)C(c2ccccc2)n2nnnc2N1 (stereo unspecified),0.6%,-4.1,14,-15,-1.3,-4
CN1CCN(S(=O)(=O)c2ccc3c4c(cccc24)C(=O)N3)CC1,1.5%,-3.2,3,-5,-0.1,-1
CC(C)CNC(=S)NC(=O)c1ccccc1Cl,3.2%,-7.5,2,-4,-1.0,7
CCOc1cccc(NC(=O)CSc2sc3c(O)cc(=O)[nH]c3c2C#N)c1,2.4%,-0.8,-3,-3,0.4,5
CC(Oc1ccc(F)cc1)C(=O)Nc1nc(-c2ccc(F)cc2)ns1 (stereo unspecified),?,nt,nt,nt,2.1,14
COc1ccc(CCn2c(=N)c(C(=O)NCc3ccco3)cc3c(=O)n4ccccc4nc32)cc1,-2.9%[38.3 µM],-3.7,-75*,-15,0.8,-5
CC12CCC(=O)N1C(C(=O)NNC(=O)COc1ccc(Br)cc1)CS2 (stereo unspecified),1.8%,-4.2,3,-3,-0.6,-8
CSc1nc2c(c(=O)[nH]1)C(c1ccc(C(F)(F)F)cc1)CC(=O)N2 (stereo unspecified),-1.1%,-6.6,7,-2,1.6,-5
COc1cccc(CCc2nnc(CCC(=O)NC(C)Cc3cccs3)o2)c1 (stereo unspecified),1.4%,0.2,-5,-6,-0.3,6
FC(F)(F)c1cc(C(F)(F)F)c2ccc(N3CCN(c4ncccn4)CC3)nc2n1,10%[38.3 µM],-0.2,3,-9,-0.8,15
CCCN1C(=O)C(O)(C/C(C)=N/O)c2ccccc21 (stereo unspecified),-2.7%,-4.7,-4,-7,-1.0,-4

# Profiles, looked up by structure.
# COC(=O)c1sc(-c2ccccc2)cc1NC(=O)c1cccc(Cl)c1 as listed: PINK1 expr mod: -0.5%; D2 agonist: nt; Six1-Eya2 inh: nt; D2 PAM: nt; TRPML1 ag: -0.3; TRPML1 blocker: -11
# COC(=O)c1cc(NC(=O)COC(=O)CN2C(=O)C3CC=CCC3C2=O)cc(C(=O)OC)c1 (stereo unspecified) as listed: PINK1 expr mod: 0.1%; D2 agonist: -3.3; Six1-Eya2 inh: -16; D2 PAM: 1; TRPML1 ag: -0.1; TRPML1 blocker: -11

# (further entries)
smiles,PINK1 expr mod,D2 agonist,Six1-Eya2 inh,D2 PAM,TRPML1 ag,TRPML1 blocker
CCC(=O)Nc1cc(C)c(NC(=O)c2ccccc2OC)cn1,0.9%,-0.4,0,-12,-0.7,-1
CC1OC(c2ccccc2)OC2COC(c3ccccc3)OC12 (stereo unspecified),2.5%,1.7,-1,-1,1.0,14
O=C(NCc1ccco1)C1CCC(CNS(=O)(=O)c2cccc3cccnc23)CC1 (stereo unspecified),2.6%,-0.7,-7,-7,0.5,-10
CCCCN(C)CCCNC(=O)C1(O)c2ccccc2NC(=O)N1c1ccc(Cl)cc1 (stereo unspecified),-0.1%,-1.2,-1,-6,3.0,1
COC(=O)c1c(C)nn(-c2ccccc2)c1-n1cccc1,-0.6%,-3.2,5,-5,1.0,-7
CCOc1ccc(-c2nc(-c3ccncc3)no2)cc1OCC,0.5%,-2.4,7,-2,0.7,14
O=S(=O)(c1ccc(S(=O)(=O)N2CCN3CCCC3C2)cc1)N1CCCC1 (stereo unspecified),0.2%[38.3 µM],-0.4,-2,-16,0.3,-12
CC(=O)N1c2ccccc2CC1C(=O)N1CCN(c2cc(Cl)ccc2C)CC1 (stereo unspecified),0.7%,nt,nt,nt,0.8,19
Cc1ccc(NC(=O)C(Cc2ccccc2)NS(=O)(=O)c2ccc3c(c2)oc(=O)n3C)c(Cl)c1 (stereo unspecified),4.3%,nt,nt,nt,0.0,-1
O=C(Nc1ccc2c(c1)OCO2)C(c1ccccc1)N1CCCCC1 (stereo unspecified),1.0%,0.6,-3,-7,0.1,-9
CCOC(=O)C1CCN(C(=O)c2ccc(C)o2)CC1,-3.5%,-2.6,5,-13,-0.4,-20
CN1CCN(C(=O)/C(=C/c2cccs2)NC(=O)c2cccs2)CC1,-1.7%,-0.3,-4,-26,1.0,-13
CCCCOc1ccc(C(=O)NCC(=O)N2CCN(C(=O)c3ccco3)CC2)cc1,2.3%,1.6,2,8,0.1,20
N#Cc1nc(COc2ccc(Br)cc2)oc1N1CCN(Cc2ccccc2)CC1,-1.1%,-2.1,?,2,1.2,4
Fc1cccc(Cc2c(-c3ccc(Cl)cc3)nc3ccc(Cl)cn23)c1,7.8%,6.3,29,-5,4.5,78
CCS(=O)(=O)c1ncc(N(Cc2ccco2)Cc2sccc2C)c(C(=O)Nc2ccc(C)cc2C)n1,1.2%,nt,nt,nt,0.3,46
CCOc1ccccc1C(=O)Oc1cc(C)[nH]c(=O)c1[N+](=O)[O-],-0.6%,-3.6,1,-1,-0.6,4
CC/C(=N\NC(=O)c1c(C)nc2ccccn12)c1ccc(Cl)cc1,5.4%,2.0,10,6,1.1,0
CCCc1ccc(S(=O)(=O)N2CCN(C(=O)CN3C(=O)NC(C)(C4CC4)C3=O)CC2)cc1 (stereo unspecified),0.9%,-0.8,0,-6,-0.8,8
O=C(N/N=C/c1ccc(O)cc1)c1cc(C2CC2)[nH]n1,0.2%,-8.3,-4,-18,1.9,14
COc1ccc(NC(=O)c2ccc3ccccc3n2)cc1S(=O)(=O)Nc1ccccc1Cl,0.9%,-1.5,-19,-16,0.1,76
CC(C)C(CCN1C(=O)CCC1=O)C1CCOC(C)(C)C1 (stereo unspecified),-1.3%,-0.6,-1,11,1.0,-12
Cc1nc2ccc(S(=O)(=O)c3ccc4nc(C)[nH]c4c3)cc2[nH]1,2.3%,0.3,-7,7,-0.5,9
Cc1cccc(NS(=O)(=O)c2ccc3oc(=O)c4ncn(C)c4c3c2)c1C,5.0%,nt,nt,nt,0.0,-4
Cc1ccccc1NC(=O)C1CCC(CNS(=O)(=O)c2ccc3c(c2)C(C)(C)C(=O)N3C)CC1 (stereo unspecified),1.2%,nt,nt,nt,0.3,-5
CCN(CC)C(=O)C1=C(C)N(Cc2ccc(F)cc2)C(=O)C(CC(=O)NCCCCc2ccccc2)C1 (stereo unspecified),1.1%,0.2,0,nt,nt,nt
Cc1nnc(SCC(=O)Nc2cccc(S(N)(=O)=O)c2)n1-c1ccccc1,2.0%,-2.7,-7,-9,0.1,-5
Cc1c(F)cccc1NC(=O)c1ccc2c(c1)CCN2S(C)(=O)=O,-0.6%,-1.3,-12,-5,-0.1,16
CSc1nc(N2CCOCC2)cc(N2CCOCC2)n1,-0.6%,-2.2,-1,-5,0.2,16
CCOc1ccccc1-c1nc(C(N)=O)c2c(n1)n(-c1ccc3c(c1)OCO3)c(=O)n2C,-0.4%,nt,nt,nt,1.8,1
CN(Cc1ccccc1)C(=O)c1ccccc1NC(=O)C1=CSCCO1,0.8%,7.5,3,-1,-0.4,6
O=C(NCCc1ccc(Cl)cc1)c1ccc2ccccc2n1,0.5%,-1.2,37,-11,2.5,33
COC(=O)C1CCN(C(=O)COC(=O)Cc2c[nH]c3ccccc23)CC1,1.6%,0.8,9,0,-0.4,-8
CCC(C)NC(=O)c1ccc(-n2c(-c3ccccc3)cc3c2CCCC3)cc1 (stereo unspecified),0.7%,nt,nt,nt,1.3,-21
Cc1[nH]c2ccccc2c1C(=O)CSc1ccc(Cl)cc1,?,4.2,-2,-48,-0.3,31
O=C(Cn1c(=O)n(Cc2ccco2)c(=O)c2cccnc21)Nc1ccccc1F,1.5%,nt,nt,nt,-0.8,-3
COc1ccc(-c2nnc(NC(=O)c3c(OC)cccc3OC)s2)cc1,5.5%,-0.2,-11,-25,-0.2,0
CSCCC(NC(=O)C1CC1)c1nc2ccccc2[nH]1 (stereo unspecified),-1.2%[38.3 µM],-0.3,-2,3,-0.7,5
CCOC(=O)c1cnc2nc(Cc3ccccc3)[nH]n2c1=O,-2.0%,-2.4,-19,-7,1.5,-6
COC(=O)COc1ccc(=O)n(-c2ccccc2)n1,-0.4%,-3.0,3,?,-0.7,-6

# Six1-Eya2 inh, entries above that show a hit
SMILES	PINK1 expr mod	D2 agonist	Six1-Eya2 inh	D2 PAM	TRPML1 blocker
COc1ccc(CCn2c(=N)c(C(=O)NCc3ccco3)cc3c(=O)n4ccccc4nc32)cc1	-2.9%[38.3 µM]	-3.7	-75*	-15	-5
